Assay outcomes from PubChem.
LANA-nucl inh: LANA-nucleosome interaction inhibition; FITC-LANA1-23 / chicken nucleosome fluorescence polarization; hits give low values; z-score (concentration not given with the values); 0.3% of 51,000 active; AID 720717;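 active = both repeat wells score below -2 in polarization z-score versus plate sample wells, excluding overly bright wells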;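 also: 100 nL library stock added to about 30 µL; numbers are from one replicate; some results filed as inactive read as strong as hits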
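Test system: purified chicken nucleosomes with FITC-labelled LANA N-terminal peptide (1-23); Input: 240 nM purified chicken nucleosomes (480 nM peptide binding sites), final; Medium: TEN-BT buffer, pH 7.5; Timing: 10–45 min, room temperature; Technique: fluorescence polarization, 480 nm excitation, 535 nm parallel and perpendicular emission; Replication: duplicates.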
Ab BasE inh: blocks the Acinetobacter baumannii siderophore enzyme BasE | 0.1% of 84,000 active | purified BasE, fluorescence polarization binding displacement | inhibition, % (concentration not given with the values) | AID 485350;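 active = both replicates above 25% with normal brightness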;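 also: 0% = negative plate control signal and 100% = positive plate control signal; stock transfer was 100 nL into about 30 µL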
The depositor's hits bear a star; · = not tested or not shown; & = joins results of further samples.

Order of results: LANA-nucl inh, Ab BasE inh
Cn1c(C(=O)NCCN2CCN(c3ccccc3F)CC2)cc2c(=O)n(C)c3ccccc3c21
→ 1.1, -0.7
C/S(=N\S(=O)(=O)c1ccccc1)c1ncc(Cl)cc1C(F)(F)F (stereo not given)
→ -0.18, 0.4
Cc1nnc(SCc2ccccc2C(=O)O)n1C
→ 0.16, 2.9
Cc1ccc(SCc2cc(=O)n3nc(-c4ccco4)sc3n2)cc1
→ 1, -2.9
FC(F)(F)c1cc(-c2noc(-c3ccc4c(c3)CCO4)n2)cc(C(F)(F)F)c1
→ 0.067, 0.6
COc1ccc(CNc2ccc3cn[nH]c3c2)c(OC)c1C
→ -1.3, 6.2
COc1ccc(-c2csc(Cc3nnc(N4CCOCC4)n3-c3ccccc3)n2)cc1
→ ·, -2.3
O=C(NC1(O)C(=O)c2ccccc2C1=O)c1cnn(-c2ccccc2)c1C(F)(F)F
→ ·, -1.9
COC(=O)c1sc(-c2ccc(F)cc2)cc1NC(=O)C(F)(F)F
→ ·, 2.2
Cc1cc(C(=O)Oc2ccc(C#N)cc2)c(C)s1
→ ·, 1.2
CC(C(=O)Oc1ccc2c(c1)OCO2)N1C(=O)c2ccccc2C1=O (stereo not given)
→ ·, -0.4
CSc1nc(C)c(CCC(=O)O)c(C)n1
→ ·, 1.4
Cc1ccc(C(=O)N[C@H](C(=O)NC2CCCCC2)C(C)C)cc1
→ ·, 1.2
COc1ccc(OCc2nnc(SC(C)c3nc4ccccc4c(=O)[nH]3)n2C)cc1 (stereo not given)
→ 3.1, -2.0
CCOC(=O)N1CCN(C(=O)COC(=O)C(C)N=C2NS(=O)(=O)c3ccccc32)CC1 (stereo not given)
→ ·, 1.8
CCC(C)c1ccc(NC(=O)c2cc3ccccc3o2)cc1 (stereo not given)
→ ·, 1.9
Cn1cc(C(=O)N2CCCc3ccccc32)c(-c2ccc3c(c2)OCCCO3)n1
→ ·, 2.5
S=C(NCC1CCCO1)N1CCN(C2CCCCC2)CC1 (stereo not given)
→ -0.84, -0.1
CC(=O)Nc1c(O)nc(SCC(=O)N(C2CCCCC2)C2CCCCC2)[nH]c1=O
→ -0.78, 2.0
COc1cccc(/C=C/C(=O)N2CCN(c3n[nH]c(=O)[nH]c3=O)CC2)c1OC
→ ·, -0.6
Cc1cccc(N2C(=O)CS/C2=N\NC(=O)c2cccnc2)c1C
→ 0.092, 2.0
COc1ccc(-c2nnn(CC(=O)N(CC3CCCO3)C(C(=O)NC3CCCCC3)c3cccs3)n2)cc1 (stereo not given)
→ 0.067, 0.2
CCOc1ccc(S(=O)(=O)NCC(C)(C)N2CCOCC2)cc1
→ ·, -0.9
CN(CCNc1nc(-c2ccccc2)no1)Cc1ccccc1
→ -0.27, 3.7
COc1ccc(C2C(C(N)=O)C(=O)NC(O)(c3ccccc3)C2C#N)cc1 (stereo not given)
→ -2.3*, 1.9
CCOC(=O)c1sc2ncn(/N=C/N(C)C)c(=O)c2c1C
→ -0.67, 1.7
Cc1c(C#N)c(NC(=O)CN2CCCC2c2cccs2)n(Cc2ccco2)c1C (stereo not given)
→ ·, 2.5
O=C(COc1ncnc2cc(Cl)ccc12)c1ccc(F)cc1
→ ·, -0.3
O=C1CCc2nc3ccccc3n21
→ ·, 0.2
CC(NC(=O)c1ccc2c(c1)OCCO2)c1ccc2c(c1)OCO2 (stereo not given)
→ 0.16, 2.7
N#CCCCn1c(O)c(N=NC(=O)C2COc3ccccc3O2)c2ccccc21 (stereo not given)
→ -0.19, 3.1
CCN1CCN(CCC(=O)Nc2sc(-c3ccccc3)cc2C(=O)OC)CC1
→ ·, -0.7
CC1CCC(C(C)C)C(OC(=O)CSc2nnc(-c3cccnc3)n2N)C1 (stereo not given)
→ ·, -1.4
O=C(COc1ccc(Br)cc1F)NCCc1ccccn1
→ ·, 0.5
Clc1ccc(/C=N\N2CCN(c3ccccc3)CC2)cc1
→ 0.16, 0.7
Oc1ccc2ncccc2c1C(Nc1ccccn1)c1ccco1 (stereo not given)
→ 1.4, -3.4
CNC(=O)NC(=O)c1cnccc1C(F)(F)F
→ ·, -0.6
O=C(NNc1nc2c(F)cccc2s1)C1=COCCO1
→ -1.5, 0.2
O=C(Sc1nc2ccccc2o1)c1ccccc1
→ 0.19, 13
O=C1c2ccccc2C(=O)N1CCCN1CCN(Cc2c(F)cccc2Cl)CC1
→ ·, 2.6
O=S(=O)(Nc1ccccc1NC1CCN(Cc2ccccc2)CC1)c1ccc(F)cc1
→ ·, 0.7
Cc1ccc(C(=O)c2cc(O)c(O)c([N+](=O)[O-])c2)cc1
→ -0.14, ·
Cc1ccc(C)c(S(=O)(=O)N(C)Cc2cccs2)c1
→ ·, 0.1
COc1cc(Cl)c(C)cc1NC(=O)CNC(=O)C1CCCCC1
→ ·, 0.3
OC(COc1ccccc1)COc1ccccc1
→ -0.063, -1.1
CC(C)CC(=O)N=Nc1c(O)[nH]c2ccc(Br)cc12
→ 0.12, 5.2
Cc1cc(C)c(S(=O)(=O)NC(C)C2C3CC4CC(C3)CC2C4)c(C)c1 (stereo not given)
→ ·, -0.3
N#Cc1ccc(N2CCOCC2)cc1C#N
→ -0.41, 0.9
CCOc1ccc(NC(=O)CN(C)Cc2cc(=O)n3c(-c4ccccc4)csc3n2)cc1OCC
→ ·, -0.7
CCOC(=O)Cn1ccc2nc(SC)ncc2c1=O
→ 0.13, -0.7

Some of these compounds in order of number of heavy atoms, falling:
Order of results: LANA-nucl inh, Ab BasE inh
CCOc1ccc(NC(=O)CN(C)Cc2cc(=O)n3c(-c4ccccc4)csc3n2)cc1OCC
→ ·, -0.7
O=S(=O)(Nc1ccccc1NC1CCN(Cc2ccccc2)CC1)c1ccc(F)cc1
→ ·, 0.7
Cc1ccc(C)c(S(=O)(=O)N(C)Cc2cccs2)c1
→ ·, 0.1
OC(COc1ccccc1)COc1ccccc1
→ -0.063, -1.1

Additional results
Order of results: LANA-nucl inh, Ab BasE inh
COCc1cc(C)nc(SCC(=O)NC2CCCCC2C)c1C#N (stereo not given)
→ 0.42, 0.6
COc1ccc(C[C@H](C)NC[C@@H](O)c2ccc(O)c(NC=O)c2)cc1
→ -0.21, ·
S=C(NCCN1CCOCC1)c1ccc(Cl)cc1
→ 0.45, 2.6
CCOC(=O)N1CCC(NC(=O)c2cc(C(=O)NCc3cccc(Cl)c3)ccc2CO)CC1
→ 0.45, 2.1
CC(=O)Nc1ccc(OCC(O)CN2CCN(c3ccc(C)c(Cl)c3)CC2)cc1 (stereo not given)
→ 0.44, -2.5
CCOC(=O)Nc1ccc2c(c1)N(C(=O)CN(C)C)c1ccccc1S2
→ -0.93, -4.4
CN(C)c1ccc(C2N(Cc3ccccc3)CCC3CCCCN32)cc1 (stereo not given)
→ ·, 0.9
CCOC(=O)C[N+](C)(C)Cc1ccccc1
→ ·, -1.6
N#CC(C(N)=S)=C1CCCC1
→ ·, -1.2
Cc1c(Cl)cccc1N1C(=O)CC(Sc2nnnn2-c2ccccc2)C1=O (stereo not given)
→ ·, -0.2

Gathered by group: the compounds so far with a COOH group.
Order of results: LANA-nucl inh, Ab BasE inh
Cc1nnc(SCc2ccccc2C(=O)O)n1C
→ 0.16, 2.9
CSc1nc(C)c(CCC(=O)O)c(C)n1
→ ·, 1.4

The list goes on:
Order of results: LANA-nucl inh, Ab BasE inh
CCN1CCCC1CNC(=O)c1sc2nc3n(c(=O)c2c1C)CCCCC3 (stereo not given)
→ 0.44, -1.8
O=C(O)c1ccccc1C(O)c1ccccc1 (stereo not given)
→ ·, 2.8
CN1C(=O)C2C=CC=CC2NC1=S (stereo not given)
→ ·, -1.0
CCOC(=O)c1sc(N2C(=O)c3ccccc3C2=O)c(C#N)c1C
→ 0.91, -1.0
CC(C)COC(=O)CNc1n[nH]c(=S)[nH]c1=O
→ -1.1, 0.2
CC(=O)NC(Cc1c[nH]c2ccccc12)C(=O)N1CCN(c2cccc(C(F)(F)F)c2)CC1 (stereo not given)
→ ·, 3.3
O=C1C2C3CC4C5C3C1C5C1(OCCO1)C42 (stereo not given)
→ ·, 2.9
C=CCn1c(SCC(=O)O)nnc1-c1sc2ccccc2c1Cl
→ ·, 1.6
c1ccc(OCc2nc3ccccc3s2)cc1
→ 0.33, 0.1
CCCN1C(=O)/C(=C\C(=O)c2cccs2)c2ccccc21
→ -0.55, 1.5
CCOC(=O)c1cc(CC)sc1/N=C/C1C(=O)c2ccccc2C1=O
→ ·, -0.7
O=C(NCCCn1ccnc1)C12CC3CC(CC(C3)C1)C2
→ -0.71, 1.3
CC(=O)Nc1ccc(S(=O)(=O)N(C)CC(=O)NC2CCCc3ccccc32)cc1 (stereo not given)
→ ·, 1.9
COc1cc(C(=O)N2CCCN3C(=O)c4ccccc4C23)cc(OC)c1OC (stereo not given)
→ ·, 1.4
Cc1cn(C/C=C\c2ccccc2)c(=O)n(C/C=C/c2ccccc2)c1=O
→ ·, 2.2
O=C(c1ccccc1)c1ccccc1C(=O)N1CCN(C2CCS(=O)(=O)C2)CC1 (stereo not given)
→ ·, 0.2
Cc1ccccc1NC(=O)NC1(C(=O)N2CCC(C(N)=O)CC2)CCCCC1
→ -0.22, 1.0
NC(=O)C1CCCCN1C(=S)Nc1cccc(C(F)(F)F)c1 (stereo not given)
→ ·, -1.4
CC(Oc1ccc(/C=C2/SC(=O)N(C)C2=O)cc1)C(=O)O (stereo not given)
→ -0.045, -0.1
COc1ccc(C(C)NCc2ccco2)cc1 (stereo not given)
→ 0.19, -3.1
COC(=O)c1sccc1N1C(=O)C=C(C)C1=O
→ ·, -1.1
CCN(CC)S(=O)(=O)c1ccc(C(=O)NCC(=O)OC)cc1
→ ·, 0.1
Cc1cc(C)n(C(=S)CSc2nc(-c3ccc(F)cc3)cc(-c3ccco3)c2C#N)n1
→ ·, 1.0
O=C(CN1CCCCC1)OCCCC1CCCCC1
→ -0.52, 2.3
O=S(=O)(c1ccc(-c2ccccn2)s1)N1CCCC1c1ccc(F)cc1 (stereo not given)
→ -0.59, ·
CCC1(CC)N([O-])C(C)=C(c2ccccc2)[N+]1=O
→ ·, 2.5
Oc1cccc(C=Nc2ccccc2N2CCOCC2)c1
→ ·, 0.1
CC1(C)C(C(=O)O)N2C(=O)CC2S1(=O)=O (stereo not given)
→ -0.61, 2.2
CC1CN(c2nnc(-c3cccs3)c3ccccc23)CC(C)O1 (stereo not given)
→ ·, 0.7
Cn1ccnc1SCC(=O)c1ccc(Cl)cc1
→ -1.8, 2.8
Cn1c(/C=C(\C#N)C(N)=S)ccc1-c1ccc(Br)cc1
→ -0.48, 2.7
O=C(CSc1nnnn1Cc1ccccc1)Nc1ccccc1
→ -0.6, -0.5
O=C(O)CCNc1ncnc2c1oc1ccccc12
→ 1, -1.2
O=C(O)c1sccc1OCc1ccccc1
→ -0.13, ·
CN1CCN(c2ccc(CN3CCS(=O)(=O)CC3)cc2)CC1
→ -1.3, ·
CCc1ccccc1Nc1nc(N)nc(CN(C)Cc2cccs2)n1
→ ·, -0.5
O=C(CSc1nnc(Cn2nnc3ccccc32)o1)N(Cc1ccc(Cl)cc1)c1ccccc1
→ 0.45, 5.3
O=S(=O)(Cc1ccccc1)N1CCC(Oc2cccc(C(F)(F)F)c2)CC1
→ -1.4, 1.4
COc1cc(NC(C)CCCN)c2ncccc2c1 (stereo not given)
→ -1.1&0.96&-0.22&0.0005, 0.2&1.4
NC(=O)c1c(NC(=O)CSc2nc3ccccc3s2)sc2c1CCC2
→ ·, 0.9
CCn1c(=N)c(C#N)cc2c(=O)n3cc(C)ccc3nc21
→ 0.42, -7.1
C=C(C)COc1ccc2c(CC)cc(=O)oc2c1OCC(=C)C
→ 0.21, -1.2
CCCSc1nsc(NC(=O)CC)n1
→ -0.017, 1.8
Cc1ccc2c(c1)c1c3n2C=CNC3CCC1 (stereo not given)
→ -2.6, 6.6
COc1ccc(Cl)cc1N1C(=O)CC(N2CC(C)OC(C)C2)C1=O (stereo not given)
→ ·, -2.5
CC(N=Cc1c(O)ccc2ccccc12)C12CC3CC(CC(C3)C1)C2 (stereo not given)
→ ·, 0.0
C(=Nc1ccc(Nc2ccccc2)cc1)c1ccco1
→ -1.1, -0.7
COC(=O)c1cnn(C(=O)Nc2ccccc2)c1C(OC)OC
→ ·, 1.1
CSc1nsc(SC)c1C(=O)NN1CCOCC1
→ ·, 3.4
CCCCOC(=O)N1C2C=CC(C2)C1(C(F)(F)F)C(F)(F)F (stereo not given)
→ 0.029, 2.0

LANA-nucl inh, entries above that show a hit.
structure,LANA-nucl inh
COc1ccc(C2C(C(N)=O)C(=O)NC(O)(c3ccccc3)C2C#N)cc1 (stereo not given),-2.3*

The results go on:
Order of results: LANA-nucl inh, Ab BasE inh
NCC1(c2ccccc2)CCCC1
→ -0.39, -0.9
CC(C)c1ccc(NC(=O)C2CCN(S(=O)(=O)c3ccc4c(c3)CCC(=O)N4)CC2)cc1
→ 1.1, -2.5
CC(C)(N)COc1nonc1-c1ccccc1
→ 0.7, -5.5
CCOC(=O)C1(CC)CC(CSC(=N)N)OC1=O (stereo not given)
→ -0.95, 0.9
CC/C(=C\c1sc2ccc(OC)cc2[n+]1CC)SCC(=O)O
→ ·, 7.3
O=C(Nc1nnc(C2CCCC2)s1)C1CC1
→ -0.7, -0.5
Cc1ccc(S(N)(=O)=O)cc1C(=O)NC(C)C
→ -0.45, -1.0
C=CCn1cc(/C=C(\C#N)C(=O)NC2CCCCC2)c2ccccc21
→ -0.99, 2.7
COc1cccc(/C=C/C(=O)Nc2cccc3c2C(=O)NC3=O)c1OC
→ ·, 4.1
CCC(=O)N1CCN(c2ccc(NC(=O)COc3ccccc3)cc2)CC1
→ -0.63, -0.4
O=C(COC(=O)/C=C/c1cccs1)Nc1ncc(Br)s1
→ ·, -2.7

An excerpt; count on the stated rates, not on these rows.
